# NPYLR7 agonist – mosquito NPYLR7 agonism | HEK293T NPYLR7/Galpha15, GCaMP6s calcium fluorescence | activation, % at 10 µM | 0.15% of 270,000 active | AID 1259423; in the data active = activation above about 40%;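 note: 0% = vehicle and 100% = reference agonist at the receptor; some compounds past the cut are filed as inactive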
# NPYLR7 agonist max-min – further read-out of NPYLR7 agonist, marked with its call; activation, %; measured here: Max-Min RFU normalised activation; some inactives read as strong as hits;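 span of the calcium signal over five minutes; 0% = vehicle and 100% = native peptide agonist; compound fluorescence can raise it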
# Starred values were filed as active, the others as inactive; & = joins results of further samples.
entry	SMILES	NPYLR7 agonist	NPYLR7 agonist max-min
1	COc1ccc(-c2cc(C(=O)NC(C)CCc3ccccc3)n(-c3ccc([N+](=O)[O-])cc3)n2)cc1 (centres undefined)	0	8
2	CCOc1ccc(-n2c(CNC(=O)c3ccco3)nnc2SCC(=O)N2CCc3ccccc32)cc1	-7	4
3	CCOC(=O)C1(Cc2ccccc2C)CCCN(Cc2ccc(COC)o2)C1 (centres undefined)	3	2
4	CSc1nsc(SCC2=NNC(=O)c3ccccc3O2)n1	1	6
5	COCCC(=O)N(CC1CCN(C2Cc3ccccc3C2)CC1)CC1CCCO1 (centres undefined)	10	10
6	CCC1CN(C(C)c2nc(-c3ccncc3)no2)CCO1 (centres undefined)	4	1
7	O=C1CCCN1c1ccc(S(=O)(=O)Oc2ccccc2Cl)cc1[N+](=O)[O-]	-4	-5
8	CCn1cc(C(=O)N2CCCC(N3CCN(c4cccc(Cl)c4)CC3)C2)cn1 (centres undefined)	1	0
9	O=C(Cc1ccsc1)N1CCOC(COc2ccc(F)cc2)C1 (centres undefined)	17	23
10	Cc1ccc(NC(=O)C(C)n2ncccc2=O)cc1F (centres undefined)	0	0
11	C=C(C)Cn1c(=O)c2c(nc3n(-c4cc(C)ccc4C)c(C)c(C)n23)n(C)c1=O	-2	-4
12	CC(c1ccc(Cl)cc1)N(C)S(=O)(=O)c1ccccc1C#N (centres undefined)	0	-1
13	CC(=O)N(C)c1nc(COC(=O)C2CC3CCC2C3)cs1 (centres undefined)	11	8
14	Cc1sc2ncnc(N3CCC(C)CC3)c2c1S(=O)(=O)N1CCOCC1	-2	-1
15	COc1cc(-c2nnc(N)s2)cc(OC)c1OC	3	3
16	O=C(c1cc(-c2ccccc2F)nn1-c1ccc(F)cc1)N1CCN(C(c2ccccc2)c2ccccc2)CC1	-2	8
17	Cc1ccc(F)c(-c2cc(C)nc(N)n2)c1	8	9
18	CC(C)(C)C(=O)Nc1ccnn1C1CCN(C(=O)c2ccc(Cl)cc2F)CC1	-1	-5
19	COc1ccc(N2CCN(C3CCCN(Cc4ccc(F)c(F)c4)C3)CC2)cc1 (centres undefined)	2	-1
20	O=C(Nc1cccc2c1C(=O)c1ccccc1C2=O)c1ccccc1I	12	15
21	CS(=O)(=O)c1ccccc1C(=O)N(CCCN1CCOCC1)c1nc2c(F)cccc2s1	-2	-6
22	CC1=C(C(=O)NCCSc2ncn[nH]2)C(C)NC(=O)N1 (centres undefined)	10	6
23	COc1ccccc1/C=c1\sc2nc(-c3ccncc3)nn2c1=O	-8	-11
24	FC(F)(F)c1cccc(Cn2c3ccccc3c3nc4ccccc4nc32)c1	5	2
25	COc1ccc(C(=O)NC(C)c2cnn(-c3ccccn3)c2C)cc1F (centres undefined)	-2	-3
26	COc1cccc(-c2nc(C=Nc3ccccc3Cl)c(O)o2)c1	-8	-14
27	CSCCC(=O)N1CCN(c2nccc(-c3ccc(Oc4ccccc4)cc3)n2)CC1	6	0
28	CC(Nc1cncc(Cl)n1)c1ccc(-c2cncnc2)cc1 (centres undefined)	13	18
29	C=C(C)COc1cccc(C(=O)N2CC(N3CCCCC3C)C2)c1 (centres undefined)	3	-4
30	CNCC12CC3CC(CC(C3)C1)C2	2	5
31	O=C(CN1CCCC1Cn1cccn1)NCCc1ccc(F)cc1 (centres undefined)	2	-2
32	NC(Cn1ccc(=O)n(Cc2ccccc2C(=O)O)c1=O)C(=O)O (centres undefined)	0	-11
33	COc1ccc(-n2c(C)nc3ccc(NC(=O)C4CCCO4)cc3c2=O)cc1 (centres undefined)	-9	-10
34	Cc1ccc2sc(N(Cc3cccnc3)C(=O)c3ccc([N+](=O)[O-])cc3)nc2c1C	-7	-3
35	CCOC(=O)N1CCC(=NNC(N)=O)CC1	-3	-13
36	O=C(c1ccco1)N1CCN(c2nc(-c3cccs3)nc3cc(Cl)ccc23)CC1	10	17
37	CCOc1cccc(-c2cc(C(=O)N3CCN(C)CC3)ccn2)c1	7	1
38	CC(C)CC(C)N(C)C(=O)c1cc(CN2CCOCC2)on1 (centres undefined)	-1	4
39	COc1ccccc1OCCCOc1ccccc1Cl	6	4
40	COC(=O)c1cc(C(C)C)nc2c1c(-c1ccco1)nn2C1CCS(=O)(=O)C1 (centres undefined)	12	4
41	CC(c1ccc(C(=O)NCc2cc(F)ccc2F)o1)N1CCCCC1 (centres undefined)	-1	-3
42	Cc1cc(C)c(NC(=O)CSc2nc(=O)n(CCCN3CCOCC3)c3c2CCC3)c(C)c1	2	2
43	COc1cccc(C2CCN(c3cc(C4CCNCC4)ncn3)C2)c1OC (centres undefined)	0	-6
44	CCc1ccc[n+](C2=C(c3c(C(C)C)[nH]n(-c4ccc(Cl)cc4)c3=O)C(=O)N(CCOC)C2=O)c1	9	5
45	Cc1nn(CC(=O)Nc2ccccc2)c(=O)c2ccccc12	15	6
46	Cc1nnc(SCCCn2cnc(-c3ccccc3)c2-c2ncc[nH]2)s1	11	5
47	COc1ccc(CN(CC(=O)NC2CCCCC2)S(=O)(=O)c2cccnc2)cc1	-11	-11
48	CN(C)S(=O)(=O)c1ccc(C(=O)Nc2c3c(nn2-c2ccccc2)CS(=O)C3)cc1 (centres undefined)	-2	-4
49	CCCCN(CC(=O)Nc1c(-c2ccccc2)c(C)nn1-c1ccccc1C)S(=O)(=O)c1ccc(F)cc1	48*	43*
50	CN1CC2(CCN(C(=O)c3n[nH]c4ccccc34)CC2)CC1C(=O)O (centres undefined)	19	14

# Continued.
entry	SMILES	NPYLR7 agonist	NPYLR7 agonist max-min
51	O=C(O)c1csc(CSc2nnc(-c3ccccc3Cl)n2-c2ccccc2Cl)n1	16	14
52	COCCNC(=O)C(NC(=O)c1ccc(OC)cc1)C1CCN(C(=O)c2cccc(C)c2)CC1 (centres undefined)	1	5
53	O=C(CCCSc1ccc(NC(=O)c2ccc(F)cc2)nn1)NCC1CCCO1 (centres undefined)	-4	-5
54	COCCCN(Cc1ccc(OS(C)(=O)=O)cc1)C(=O)c1ccc([N+](=O)[O-])cc1Cl	21	16
55	CCOc1ccc(NC2=NC3CS(=O)(=O)CC3S2)cc1 (centres undefined)	-1	-2
56	Cc1nn(CCNC(=O)C2CCCCn3nnnc32)c(C)c1Cl (centres undefined)	-6	-10
57	CCCCc1ccc(-c2ccc(-n3cncc3C(=O)NCc3cccc(I)c3)cc2)cc1	16	-4
58	CC(NC(=O)Cn1nnc2c(cnn2-c2ccccc2)c1=O)C1CC1 (centres undefined)	-14	-16
59	CCc1nc(CNc2nccc(-c3cn(C)nc3C)n2)cs1	9	5
60	O=C(/C=C/c1cccc([N+](=O)[O-])c1)n1cnc2ccccc21	4	4
61	C#CCCCCCCCCCCCC(=O)CC(O)COC(C)=O (centres undefined)	-4	-8
62	O=C(NCCN1C(=O)SC(=Cc2cccs2)C1=O)C1CCCC1	2	-2
63	O=C(Cn1cc(-c2ccccc2)sc1=O)NCc1ccccc1F	-21	-23
64	CSc1ccccc1N=CC1N=C(c2ccco2)OC1=O (centres undefined)	1	1
65	Cc1nc(C(C)n2cnc(-c3ccccc3)c2-c2ccncc2)cs1 (centres undefined)	-1	-2
66	Cn1c(SCc2ccccc2)nc2ccccc21	-5	-7
67	Cc1cccc(C2SCC(=O)N2C(CC(C)C)C(N)=O)c1 (centres undefined)	25	21
68	Cc1cc(N2CCN(c3cccc(C(F)(F)F)c3)CC2)nc(SCc2cccc(C(=O)NCc3ccccn3)c2)n1	13	15
69	CC(C)Cn1ncc(=O)n(CC(C)C)c1=O	2	0
70	CCNC(=O)NCC1CCN(C/C=C/c2ccccc2)C1 (centres undefined)	-2	-2
71	CCc1ccc(CN(C)Cn2nc(-c3ccc(OC)cc3)n(C)c2=S)cc1	9	13
72	CC(Oc1ccccc1)C(=O)Nn1cnc2c(cnn2-c2ccccc2)c1=O (centres undefined)	2	0
73	Cc1c(S(=O)(=O)CCNC(=O)NC(C)(C)C)c2ccccc2n1Cc1ccccc1	2	11
74	CC1C(=O)N(c2ccc(Oc3ccccc3)cc2)CCN1C(=O)NC(C)(C)C (centres undefined)	-8	-2
75	COc1ccc(-c2onc(C)c2C(=O)NCCOc2ccccc2)cc1	4	11

# More entries
no. | structure | NPYLR7 agonist | NPYLR7 agonist max-min
76 | COc1ccccc1N(CCOC(=O)c1ccc([N+](=O)[O-])c(C)c1)C1=NS(=O)(=O)c2ccccc21 | 13 | 12
77 | O=C(NCCc1ccc(Cl)cc1Cl)c1cc(-c2ccco2)nn1-c1ccccc1Cl | 7 | 12
78 | Cn1c(SC(C(N)=O)c2ccc(F)cc2)nnc1-c1ccco1 (centres undefined) | 1 | 0
79 | CCc1ccc(-c2nccn2CCCc2nn[nH]n2)o1 | 3 | 1
80 | CC1CCCCN1S(=O)(=O)c1ccc(C(=O)NCCCN2CCCC2)cc1 (centres undefined) | 2 | 1
81 | N#Cc1ccccc1OCC(=O)NCCn1c(C2CC2)n[nH]c1=S | -1 | 58
82 | CCc1nc(C)sc1CNC(=O)C1CC(C(C)C)=NO1 (centres undefined) | -5 | -11
83 | O=C1NCCN2CCN(Cc3ccc(-n4cncn4)cc3)CC12 (centres undefined) | 2 | -1
84 | COc1ccc(CCCC(=O)N2CCC(CN)C2)cc1 (centres undefined) | 13 | 10
85 | Cc1cccc(N2CCN(CN3C(=O)CC4(CCCCC4)C3=O)CC2)c1C | 16 | 8
86 | CCN(CCc1ccccc1)C(=O)c1cn(C)nc1C(F)(F)F | 6 | 2
87 | COc1cccc(/C=N\NC(=O)c2cccc(Cl)c2)c1OS(=O)(=O)c1ccc(C)cc1 | 1 | -1
88 | O=C(Cn1nc(-c2cccs2)c2sc(N3CCOCC3)nc2c1=O)OCc1ccccc1 | -1 | -4
89 | Cc1c(C(=O)O)sc2ncnc(N3CC[C@@H](O)C3)c12 | 4 | -1
90 | COCCN(Cc1cc(NC(=O)C(C)C)ccc1N(C)C)C(=O)c1ccc(F)cc1 | 6 | 8
91 | Cc1ccc2nc(CNc3nc(-c4cccnc4)nc4c3CCNC4)[nH]c2c1 | 1 | -12
92 | Cc1cc(C)n(CCN(C(=O)c2cccs2)c2nc3ccccc3s2)n1 | -13 | -19
93 | Cc1cccc(NC(=O)CNC(=O)CN(Cc2ccccc2)C(=O)c2cccc3ccccc23)c1 | -10 | -1
94 | COc1ccccc1C1=NN(C(=O)CN2CCN(c3ccccc3F)CC2)C(c2ccccc2Cl)C1 (centres undefined) | 17 | 12
95 | COc1cn(CC(N)=O)c(CSc2nccn2C)cc1=O | -6 | -10
96 | O=C(COc1cccc2ccccc12)N=Nc1c(O)[nH]c2ccc(Cl)cc12 | 0 | -1
97 | O=C(CCC1CCN(Cc2ccc(OC(F)F)cc2)CC1)Nc1ccccc1 | -4 | -6
98 | CCOC(=O)c1c(-c2ccc(OC)cc2)csc1NC(=O)C(C)C | 1 | 20
99 | COc1ccc(NC(=O)CCC2CCCN(C(=O)CCc3c(C)noc3C)C2)cc1Cl (centres undefined) | 6 | 7
100 | Clc1ccc(-c2nnc(SCc3nnc(-c4ccco4)o3)o2)cc1 | -4 | -4
101 | Cc1nc(NC(=O)c2ccccc2C(F)(F)F)sc1C | 11 | 13
102 | Cc1ccc(NC(=O)c2cc3cc(Cl)ccc3oc2=N)cc1 | -6 | -8
103 | CCOC(=O)c1[nH]c(C)c(C(=O)N2CCCC(C(=O)c3ccc(OC)c(F)c3)C2)c1C (centres undefined) | 7 | 2
104 | CCn1cnnc1CN(C)C(=O)Cc1csc(-c2ccccc2)n1 | 5 | -5
105 | Cc1ccc2oc(C(=O)NCCCCOc3ccc(F)cc3)cc(=O)c2c1 | 17 | 20
106 | COc1ccccc1CC(=O)Nc1sc2c(c1C(N)=O)CCC2 | 12 | 11
107 | COc1ccc(C(C)=O)cc1CN1C(=O)CON=C1c1ncccc1C | 0 | -2
108 | CC1=C(C)CC2C(=O)N(c3ccccc3)C(=O)C2C1 (centres undefined) | -1 | -5
109 | O=C(Nc1ccc(-c2nc3ccccc3o2)c(O)c1)c1cc(Cl)ccc1Cl | 12 | 12
110 | CCOC(=O)CSc1ccc(NC(=O)C(C)C)nn1 | 1 | 0
111 | Cc1cc(C(=O)NNC(=O)c2ccc(F)c(F)c2)c(C)o1 | 5 | 4
112 | CN1CC2(CCN(C(=O)c3ccc(Oc4ccccc4)o3)C2)OC1=O (centres undefined) | 16 | 13
113 | CCN(CC)c1ccc(CN(CC2CCCO2)C(=O)Nc2ccccc2OC)c(OS(C)(=O)=O)c1 (centres undefined) | 1 | 6
114 | C=CCNc1nc(Nc2ccc(I)cc2)nc(N2CCOCC2)n1 | 4 | 4
115 | CCN(CC)CC(=O)N1CCN2C(=O)CNC(=O)C2C1 (centres undefined) | 4 | 1
116 | CNC(=O)[C@H]1C[C@]2(CCCCN(CCOC)C2=O)N(C(=O)c2ccc(F)cc2)[C@H]1c1ccccc1 | 2 | 7
117 | O=C(Cc1ccc(F)cc1)Nc1nnc(-c2cc3ccccc3o2)o1 | 6 | 1
118 | CCOC(=O)N1CCC(NC(=O)CC2C(=O)NCCN2Cc2cccs2)CC1 (centres undefined) | 3&15 | 0&8

# This is a subset; rates above refer to the full screens.
